# Compound activity as filed in PubChem.
# Mtb H37Rv – M. tuberculosis H37Rv growth inhibitors, H37Rv strain (AID 1626). one-dose inhibition, % at 10 µM; IC50 in µM for titrated hits. 0.95% of 220,000 active. M. tuberculosis H37Rv growth inhibition; higher % means a stronger effect;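 active = confirmed in a dose series; inconclusive = inhibition above 80% but not taken into the dose series; inactive = below 80% or under 30% at every dose of the series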;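 also: bacteria incubated seven days before Alamar blue readout; 0% = bacteria only wells and 100% = bacteria with antibiotic wells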
# Arbovirus inh – antivirals against arbovirus infection, primary screen, cell-based, full library, 10K replicate subset; arbovirus infection cell-based antiviral screen; inhibition, % at 10 µM; 0.37% of 200,000 active; AID 1251, 2008;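 active = inhibition from about 30%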;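 also: bluetongue infection of BSR cells; cell survival read as ATP light after 72 h; 0% = infected wells without compound and 100% = uninfected wells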
# YopH PTP inh – YopH tyrosine phosphatase inhibitors, primary screen, biochemical, fluorescence Ex485/Em525 | inhibition, %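 (about 10 µM by stock and volumes)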 | 0.16% of 140,000 active | YopH tyrosine phosphatase [Yersinia enterocolitica];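 active = inhibition of 50% or more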;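 also: controls were vehicle for no effect and minimum signal wells for full effect; inactives centre near -20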
# RecA intein inh – Mtb RecA intein splicing inhibitors, primary screen, biochemical, fluorescence, HTS; inhibition, %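 (about 9 µM by stock and volumes)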; 0.75% of 290,000 active; cell-free RecA intein splicing; in the data active = inhibition above about 30%; inconclusive = no clear call, values can overlap the other calls;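 also: 0% = vehicle wells and 100% = reference inhibitor control wells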
# Target sequence (P9WHJ3 whole entry, looked up): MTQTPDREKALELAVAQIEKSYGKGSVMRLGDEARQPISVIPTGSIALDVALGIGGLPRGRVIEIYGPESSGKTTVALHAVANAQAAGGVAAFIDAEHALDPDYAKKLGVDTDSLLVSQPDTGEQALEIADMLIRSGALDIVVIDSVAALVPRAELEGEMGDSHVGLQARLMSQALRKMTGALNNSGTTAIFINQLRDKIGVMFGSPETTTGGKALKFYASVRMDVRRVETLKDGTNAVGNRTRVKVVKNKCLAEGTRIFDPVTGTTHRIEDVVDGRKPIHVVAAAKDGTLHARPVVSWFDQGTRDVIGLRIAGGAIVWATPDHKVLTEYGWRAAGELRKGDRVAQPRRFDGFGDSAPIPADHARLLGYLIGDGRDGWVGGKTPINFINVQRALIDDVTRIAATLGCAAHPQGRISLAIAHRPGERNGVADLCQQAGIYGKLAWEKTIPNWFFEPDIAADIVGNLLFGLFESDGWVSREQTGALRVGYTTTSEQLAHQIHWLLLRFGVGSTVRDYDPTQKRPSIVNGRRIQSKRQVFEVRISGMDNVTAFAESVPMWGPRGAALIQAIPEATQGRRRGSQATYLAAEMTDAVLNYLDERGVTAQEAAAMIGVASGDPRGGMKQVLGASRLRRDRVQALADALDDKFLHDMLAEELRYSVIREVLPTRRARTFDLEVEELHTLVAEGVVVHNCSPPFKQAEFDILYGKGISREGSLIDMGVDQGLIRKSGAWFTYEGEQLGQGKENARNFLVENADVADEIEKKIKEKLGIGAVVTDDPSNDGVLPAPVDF
# Mtb betalactam – beta-lactam sensitization of Mtb H37Rv, H37Rv; AID 434955, 2010; M. tuberculosis H37Rv growth with meropenem, percent inhibition; hits of this screen are not shown here; inhibition, % at 25 µM; 0.27% of 330,000 active;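 active = about 74% or more and at least 40 points above the plate without the antibiotic, then above 30% in a dose series; inconclusive = first-round hits that could not be retested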;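 also: growth measured after seven days incubation then overnight dye step; 0% = bacteria only wells and 100% = bacteria with antibiotic; twin plates without the antibiotic show which effects depend on it; some results filed as inactive read as strong as hits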
# Arbovirus inh repeat – second read-out of Arbovirus inh, no call of its own (marks repeat the call); inhibition, %; measured here: 10K subset replicate screen; many hits read low in the repeat;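 first of two repeat runs on a subset; 0% = infected and 100% = uninfected wells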
# Active calls of the source: *; ? = inconclusive; · = not tested or not shown. Only part of the results is shown; count on the stated rates, not on these rows.
SMILES,Mtb H37Rv,Arbovirus inh,YopH PTP inh,RecA intein inh,Mtb betalactam,others
Cc1cc(C)c2[nH]c(=O)c(CN(Cc3ccc4c(c3)OCO4)Cc3nnnn3C3CCCC3)cc2c1,17%,-24,-1,13,1,
CSCc1ccc(C(=O)NCC(c2cccs2)N2CCOCC2)cc1 (stereo not given),·,·,·,-1.2,4,
Cn1ccc(C(=O)N2CCCc3ccccc32)n1,5%,2,-21,1.5,-8,
CS(=O)Cc1cc(Sc2ccccc2)nc(-c2cccnc2)n1 (stereo not given),4%,14,·,-0.3,-4,
Cc1c(C(=O)OCC(=O)N2CCC(C)CC2)oc2ccccc12,·,·,·,1.7,-1,
CNC(=O)C1(C)C=CC2(CCCCC2)N1C(=O)OC (stereo not given),-9%,·,·,-2.6,-2,
COc1cc(NC(=O)CS(=O)(=O)c2ccccc2)cc(OC)c1OC,-6%,3,-37,-1.0,-14,
CCOc1ccc(N(C(C)C(=O)Nc2cccnc2)S(C)(=O)=O)cc1 (stereo not given),-3%,2,·,-1.3,-5,
O=C(N=Nc1c(O)n(Cc2ccccc2)c2ccccc12)c1ccncc1,?,·,·,-0.7,96,
O=C(Cn1c(=O)oc2ccccc21)NCc1ccco1,4%,2,-22,-6.4,1,
CCOc1ccc(/C=C/C(=O)Nc2ccc(OC)cc2[N+](=O)[O-])cc1,-6%,-2,-21,-9.3,-4,
O=C(COc1cccc(-n2cnnn2)c1)N1CCOCC1,-6%,6,-34,-1.4,-7,
COc1ccc(-c2nc3ccccc3s2)cc1NC(C)=O,2%,-1,·,-0.7,-6,
O=C(O)c1ccc(C2(c3ccc(C(=O)O)cc3)OC(=O)c3ccccc32)cc1,·,·,·,-1.8,-1,
Cc1cc(OCC(O)CNC(C)(C)C)ccc1Cl (stereo not given),7%,-7,·,-3.6,-9,
COc1ccc2[nH]cc(CCNC(=O)Cc3c(F)cccc3Cl)c2c1,·,·,·,1.6,9,
Cc1c(Cl)cccc1NC(=O)CCN1C(=O)C2CC=CCC2C1=O (stereo not given),·,·,·,0.0,-5,
O=C1CCC(C(=O)N2CCSCC2)CN1Cc1ccc(Cl)cc1 (stereo not given),·,·,·,0.5,1,
O=C(c1ccc([N+](=O)[O-])c(CS(=O)(=O)c2ccc(Cl)cc2)c1)N1CCCCC1,3%,15,·,-1.8,-3,
COC(=O)c1ccccc1NC(=O)CCCn1nc([N+](=O)[O-])c(Br)c1C,7%,4,·,3.9,-8,
COCCNC(=O)C(c1ccc(F)cc1)N(Cc1ccco1)C(=O)CCC(=O)Nc1nccs1 (stereo not given),-2%,5,-34,-1.3,0,
COC(=O)CC1COc2ccccc2N1C(=O)c1cccc(Cl)c1 (stereo not given),-8%,0,-44,0.5,10,
O=C(NCc1csc(-c2cccs2)n1)c1ccccc1,4%,·,·,0.0,-2,
Cc1nn(-c2nc3ccccc3s2)c(N)c1-c1ccccc1,0%,-2,-20,5.3,10,
O=C(NCCOC(=O)C1COc2ccccc2O1)C1COc2ccccc2O1 (stereo not given),3%,6,-23,7.0,-10,Arbovirus inh repeat=9

# New compounds follow:
SMILES,Mtb H37Rv,Arbovirus inh,YopH PTP inh,RecA intein inh,Mtb betalactam,others
CCOC(=O)c1[nH]c(C)c(/C(O)=C2\C(=O)C(=O)N(CCN(C)C)C2c2ccco2)c1C (stereo not given),-8%,·,·,0.1,-9,
CCOC(=O)C1CCN(S(=O)(=O)c2ccc3c(c2)NC(=O)C(C)S3)CC1 (stereo not given),·,·,·,4.0,-1,
CCOC(=O)N1CCC(NC(=O)CSCc2nc(-c3sccc3C)oc2C)CC1,7%,4,-35,-4.8,2,Arbovirus inh repeat=14
O=C1c2ccccc2CN1CCSC(=S)N1CCOCC1,-8%,5,-43,-1.4,-2,
Nc1nonc1-n1nnc(C(=O)N/N=C/c2cccnc2)c1-c1cccs1,·,·,·,-0.5,3,
Cc1ccccc1NS(=O)(=O)c1ccc(OCC(=O)N2CCCCC2)cc1,-2%,8,-11,-5.9,-7,
CCCCNC(=O)CCn1c(=O)c2ccccc2n(Cc2ccc(Cl)cc2)c1=O,-7%,-12,-24,-2.6,2,
CCc1c(C(=O)NNC(=O)Nc2ccc3c(c2)OCO3)csc1C,·,·,·,0.6,-1,
[N-]=[N+]=CC(=O)CCCN1C(=O)c2ccccc2C1=O,-1%,7,-20,2.4,-5,
COc1ccc(NC(=O)CSc2nnc(Cc3cccs3)n2-c2ccc(C)cc2)cc1,7%,11,-1,·,8,
N[C@@H](Cc1ccc(O)cc1)c1nnc([C@H](CCC(=O)O)NC(=O)C2CCNCC2)o1,-1%,5,·,-1.9,-8,
CNC(=O)/C(C#N)=C1/SC(Cc2ccc(F)cc2)C(=O)N1c1ccccc1 (stereo not given),0%,·,·,·,1,
O=C(c1ccccc1)c1nc[nH]c1C(=O)Nc1ccccn1,0%,-1,7,1.5,87,
Cc1ccccc1CN1CCN(Cc2ccc3cccc(F)c3n2)CC1CCO (stereo not given),·,·,·,1.1,2,
Cc1ccc(CNc2nc(C)nc3sc4c(c23)CCC4)cc1,3%,7,-92,0.2,-6,
CCCCN(C)CCC(=O)Nc1ccc(OC)cc1OC,-14%,2,-18,-14,-3,Arbovirus inh repeat=-1
Cc1ccc(NC(=S)N2CCCN(Cc3ccc(F)cc3)C2)c(C)c1,-9%,-1,·,2.7,2,
O=C(CN1CCN(c2ccccc2F)CC1)Nc1ccccc1F,-8%,4,-8,2.1,-6,
Cc1[nH]c2ccc3ncccc3c2c1C,7%,-1,-16,-0.3,7,
Cc1ccc(Cn2c(CCC(=O)O)nc3ncccc3c2=O)cc1,·,·,·,-0.7,1,
O=C(O)Cn1cc(C=C2C(=O)NC(=O)NC2=O)c2ccccc21,·,·,·,1.4,3,
Cc1cccc(C)c1NC(=O)CN1C(=O)CCSc2ccc(S(=O)(=O)N3CCCC3)cc21,·,·,·,-0.4,3,
Cc1cccc(NC(=S)N(CCN(C)C)C(C)c2cccnc2)c1 (stereo not given),2%,5,·,-3.8,-9,
OCCCNCc1ccc(-c2ccccc2)cc1,6%,-10,·,2.7,-9,
Oc1ccccc1C(=S)N1CCCCCC1,-11%,-3,-1,-2.8,1,

# (next part)
SMILES,Mtb H37Rv,Arbovirus inh,YopH PTP inh,RecA intein inh,Mtb betalactam,others
CC(C)Cc1nc(N2CCOCC2)c(C#N)c2c1COC(C)(C)C2,10%,-7,-24,3.1,5,
Cc1nc2ccccc2n1CC(=O)N/N=C\c1ccccn1,0%,0,5,0.1,-1,
CCOC(=O)C(NC(=O)c1ccccc1)(Nc1nnc(C)s1)C(F)(F)F (stereo not given),-1%,-3,28,3.5,4,
CCOC(=O)CN1N=C(/C=C/c2ccccc2)CCC1=O,-10%,·,-4,2.1,-6,
CCc1c(C)sc(NC(=O)Cc2ccccc2OC)c1C(=O)N1CCOCC1,·,·,·,-3.2,-1,
CCOC(=O)CC1=Nc2ccccc2NC(=O)C1,-7%,-2,-16,-0.7,-7,
O=[N+]([O-])c1cnc(Sc2ccncn2)s1,-9%,·,·,4.0,71,
Cc1cc(C(=O)CN2C(=O)C(=O)N(Cc3ccccc3)C2=O)c(C)n1-c1ccccc1F,6%,-22,·,14,8,
COc1cccc(C(=O)NCc2ccc(-c3nc4ccccc4s3)cc2)c1,3%,-14,-12,-1.8,-8,
O=C1C(=O)N(CCCN2CCOCC2)C(c2ccc([N+](=O)[O-])cc2)/C1=C(\O)c1ccc2c(c1)OCCO2 (stereo not given),·,·,·,1.7,0,
CCOC(=O)c1cccc(NC(=O)CSc2nc3cccnc3n2C)c1,-7%,8,-34,·,-3,
CN1CCc2c(sc3nc(SCC(N)=O)n(-c4ccc(Cl)cc4)c(=O)c23)C1,·,·,·,15,-2,
COc1ccc(CC(=O)Oc2ccc(C)cc2Br)cc1OC,·,·,·,9.3,4,
COC(=O)C(=O)Nc1nnc(COc2ccccc2)s1,-10%,5,-4,·,-3,
O=C(c1ccccc1Cl)N(Cc1ccc(Br)cc1)N1C(=O)CCCC1=O,-4%,-1,·,-4.6,-10,
COc1ccc(CNC(=O)C2CC(c3cccc(OC)c3)=NO2)cc1 (stereo not given),6%,-4,-23,0.0,0,
COc1ccc(/C=N\NC(=O)c2cc(O)c(O)c(O)c2)cc1CN1CCN(c2ccc(F)cc2)CC1,-2%,-20,-15,-2.3,12,
Cc1nn(C(=O)c2cccc([N+](=O)[O-])c2)c(C)c1Cl,·,·,·,6.2,-4,
O=C(Nc1ccccc1-c1nnn(CC(=O)N2CCN(c3ccccc3)CC2)n1)c1cccs1,-4%,-15,-10,0.6,0,
O=C(CNCC1CCCO1)N1CCCc2ccccc21 (stereo not given),-3%,2,-45,-2.2,4,
CCCN1C(=O)C(O)(C2CC(=O)CC(C)(C)O2)c2ccccc21 (stereo not given),-1%,-14,-13,0.9,48,
O=C(CSc1n[nH]c(-c2cccs2)n1)NCc1ccc2c(c1)OCO2,7%,2,-35,2.9,-13,
O=C(O)CN1C(=O)C2C3C=CC(C3)C2C1=O (stereo not given),-2%,-1,-26,-0.2,1,Arbovirus inh repeat=-1
CN(c1nc2nonc2nc1NC1CC1)C1CCOC1 (stereo not given),0%,0,·,-2.7,-3,
Cc1cc(C(=O)NC(Cc2c[nH]c3ccccc23)C(=O)O)c(C)o1 (stereo not given),·,·,·,-3.7,-6,

# Next section:
SMILES,Mtb H37Rv,Arbovirus inh,YopH PTP inh,RecA intein inh,Mtb betalactam,others
COC(=O)c1ccc(NC(=O)CSc2nc(C)cc(=O)[nH]2)cc1,-7%,8,-12,-0.2,6,
Cc1nn(-c2cc(C(F)(F)F)ccn2)c(=O)o1,-11%,·,·,·,-4,
O=C(Nc1cccc2cccc(NC(=O)c3ccco3)c12)c1ccco1,6%,-2,-12,6.1,6,
NS(=O)(=O)c1ccc(CCNC(=O)C2CCN(c3ncnc4c3nc3n4CCCCC3)CC2)cc1,·,·,·,-1.3,6,
O=C(CN1CCSCC1)N/N=C/c1ccccc1F,-5%,6,-2,1.2,-5,
CC[C@@H]1[C@H]2CCCC(=O)N3CC[C@@H](C[C@@H]1OC(=O)NCc1ccccc1)[C@@H]23,·,·,·,-1.0,-3,
COCC(C)NCc1cccc(C)c1 (stereo not given),-4%,-8,16,0.4,-8,
CCOc1ccc(C(=O)C2CCN(C(=O)c3ccc([N+](=O)[O-])cc3)CC2)cc1,·,·,·,0.7,-7,
COC1CCCN(C(=O)c2ccc3nc(Cc4cccc(Cl)c4)oc3c2)C1 (stereo not given),·,·,·,-1.2,-19,
Cc1ccc(Nc2cccccc2=O)cc1,·,-3,-7,2.2,1,
O=S(=O)(Nc1nc2ccccc2s1)c1cc(F)ccc1F,·,·,·,-1.2,-10,
CN(c1ccc(OCC(=O)NC2CCCC2)cc1)S(=O)(=O)c1cccs1,-5%,1,-6,3.4,4,
O=C(CSc1nnc(-c2ccccc2F)o1)OCc1ccccc1,-4%,4,-6,2.2,7,
Cc1ccc(S(C)(=O)=O)cc1C(=O)NC(C)C1CC2CCC1C2 (stereo not given),·,·,·,1.6,7,
COc1nc(NCCN2CCOCC2)nc(Nc2ccccc2)n1,6%,10,10,4.1,24,
CC(C)C(c1nnnn1C(C)(C)C)N1CCC(Cc2ccccc2)CC1 (stereo not given),-2%,5,-24,14,3,
COc1ccc(-c2csc(NC(CO)c3nc4ccccc4n3Cc3ccc(C)cc3)n2)cc1 (stereo not given),4%,·,·,15,·,
O=C(CNC(=O)c1ccccc1F)OCc1csc(-c2ccccc2)n1,-3%,18,·,0.4,-5,
